# Bioassay records deposited in PubChem by ICCB-Longwood Screening Facility, Harvard Medical School.
# Mtb MenB inh – inhibitors of Mycobacterium tuberculosis MenB enzyme; P9WNP5; MenB enzyme assay, absorbance read-out; some hits fall short of the stated cut; inhibition, %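 (about 12 µg/mL by stock and volumes)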; hit rate 0.43% among 100,000; AID 540299;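 active = mean of two replicates above 30%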;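 also: 0% = no compound and 100% = wells with inactive enzyme; the first replicate is given; strong numbers were not always called active; inactives centre near -10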
# Target sequence (P9WNP5 whole entry, looked up): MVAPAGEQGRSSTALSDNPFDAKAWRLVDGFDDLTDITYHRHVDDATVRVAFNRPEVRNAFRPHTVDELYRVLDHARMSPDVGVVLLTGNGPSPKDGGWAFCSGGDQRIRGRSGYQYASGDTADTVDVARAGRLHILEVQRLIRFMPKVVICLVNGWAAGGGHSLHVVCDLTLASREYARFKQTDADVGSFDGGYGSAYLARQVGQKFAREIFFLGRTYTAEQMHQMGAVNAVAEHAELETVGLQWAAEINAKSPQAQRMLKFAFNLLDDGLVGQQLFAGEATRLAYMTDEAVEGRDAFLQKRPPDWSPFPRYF
# MbtI inh – inhibitors of Mycobacterium tuberculosis siderophore enzyme MbtI; AID 493033; inhibition, %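 (about 17 µg/mL by stock and volumes)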; P9WFX0; purified MbtI enzyme, fluorescence intensity read-out; hit rate 0.89% among 100,000;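 active = above 50% in both replicates, above 80% if mildly self-fluorescent; inactive = the rest, strongly fluorescent compounds included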;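 also: 0% = mean of negative and 100% = mean of positive controls; one replicate is shown; some compounds called inactive have numbers as strong as hits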
# Polio RdRp inh – poliovirus RNA polymerase inhibition. P03300. poliovirus polymerase elongation, fluorescence polarization; hits give low values. % elongation, % (compound at 16.7 µg/mL). hit rate 0.66% among 150,000. AID 588519; in the data active = % elongation below about 90%; also: some results filed as inactive read as strong as hits
# Target sequence (P03300 1749-2209 limits assumed): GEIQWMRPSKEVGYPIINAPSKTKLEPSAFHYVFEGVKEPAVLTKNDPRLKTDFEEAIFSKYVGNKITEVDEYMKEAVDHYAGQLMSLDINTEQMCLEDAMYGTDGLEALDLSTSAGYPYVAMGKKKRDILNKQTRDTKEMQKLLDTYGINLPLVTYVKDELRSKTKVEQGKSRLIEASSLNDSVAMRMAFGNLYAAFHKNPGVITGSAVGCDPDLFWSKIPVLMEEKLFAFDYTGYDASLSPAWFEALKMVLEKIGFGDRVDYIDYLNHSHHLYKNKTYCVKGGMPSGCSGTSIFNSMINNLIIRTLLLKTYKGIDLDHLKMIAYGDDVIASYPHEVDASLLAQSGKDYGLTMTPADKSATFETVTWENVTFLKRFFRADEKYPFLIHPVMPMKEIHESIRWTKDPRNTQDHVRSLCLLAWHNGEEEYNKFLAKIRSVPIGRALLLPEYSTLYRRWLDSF
# Polio RdRp inh intensity – further read-out of Polio RdRp inh, marked with its call; % elongation; measured here: total intensity read-out; formula for this scale not given here;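 total fluorescence in place of polarization; lower means less elongation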
# * marks the source's active call; other numbers are inactive results; i = inactive; x = no result given.
SMILES,Mtb MenB inh,MbtI inh,Polio RdRp inh,Polio RdRp inh intensity
COC(=O)C1=C(CSCc2ccco2)NC(=O)NC1c1ccccc1C (stereo not drawn),-48,5,102,105
CCOc1ccc(-c2c(=O)n(O)c3ccccc3[n+]2[O-])cc1,-142,87*,99,105
CN(Cc1ccccc1)S(=O)(=O)c1ccc2c3c(cccc13)C(=O)N2,-63,-2,101,102
CN(C)c1nc(N(C)C)nc(N(C#N)S(=O)(=O)c2ccccc2Cl)n1,-28,0,101,103
CCCN1CCC(NC(=S)NC2CCCC2)CC1,-3,-4,100,105
CCOC(=O)c1cc(-c2ccc(OC)c(S(=O)(=O)N3CC(C)CSc4ccccc43)c2)on1 (stereo not drawn),13,-3,105,108
O=C(COC(=O)c1cccc(O)c1)c1ccc(F)cc1,22,-2,100,105
O=c1[nH]c2ccc(Cl)cc2c(-c2ccccc2)c1N1CCOCC1,-9,-36,101,103
CC(NC(=O)c1ccc(-n2ccc3ccccc32)s1)c1ccc2c(c1)OCCO2 (stereo not drawn),-53,127,99,101
CCOC(=O)c1cnc(Sc2ccc(F)c(Cl)c2)nc1C(F)(F)F,-20,-5,101,89
C#CCOC(=O)Nc1ccccc1OC,-19,-3,101,103
Cc1ccc2c(c1)-c1onc(C(=O)NC3CCCc4ccccc43)c1CO2 (stereo not drawn),-26,-3,105,106
COc1cc(OC)cc(C(=O)c2coc3ccc(O)c(CN4CCOCC4)c23)c1,4,14,99,105
Cc1ccc2c(CC(=O)O)coc2c1C,-29,-11,103,103
COc1ccc2c(c1)c1nc(C)sc1n2CCN1CCOCC1,7,16,101,106
O=C(Cc1cccs1)Oc1ccc2oc3ccccc3c2c1,-13,-3,103,107
O=C(COc1ccccc1)n1cc(Br)cn1,-19,x,99,103
CCOC(=O)c1cccc(C(=O)Nc2cccc(NC(=O)c3cccc(C(=O)OCC)n3)n2)n1,-41,-3,99,104
Cc1ccc(NC(=O)CSc2nc3c(c(=O)n2Cc2ccccc2)SCC3)cc1,-15,6,102,100
Cc1oc2ncnc(N3CCOCC3)c2c1C(=O)NCC1CCCO1 (stereo not drawn),-27,-7,104,100
COc1cc(C)c(S(=O)(=O)Nc2cccc(-c3ccc(N4CCOCC4)nn3)c2)cc1C,-20,-17,103,102
Cc1cc(C)n2nc(SCc3nc(N)nc(Nc4ccccc4C)n3)nc2n1,-22,12,103,105
Cc1ccc(CSc2nc3ccccc3s2)cc1,1,x,107,100
Cc1ccc2[nH]c3c(c2c1)SC(C)(C)CC3=O,1,7,100,102
CCNc1nc(N(C#N)CC)nc(N2CCOCC2)n1,-10,5,101,101
CCOc1ccc(NC(=O)C2CCN(S(=O)(=O)CC)CC2)cc1,-16,-13,103,103
Cc1ccc(C2CC(=O)n3nc(N)nc3N2)cc1 (stereo not drawn),9,-5,103,104
CC(C)NC(=O)c1c(Cl)nc2sccn12,x,3,105,99
COc1cc2c(=O)oc(-c3c(-c4c(F)cccc4Cl)noc3C)nc2c(OC)c1OC,-8,-4,102,105
CCOC(=O)c1cnc2c(C#N)c(C)nn2c1C,-45,i,100,98
O=C(C(Cc1ccccc1Cl)C(=O)N1CCc2ccccc21)N1CCc2ccccc21,9,-6,104,107
Cc1cccc(NC(=O)CN2CCC(C)CC2)c1C,-24,-7,104,110
CN(C)c1nc(F)c(F)c(S(=O)(=O)c2ccccc2)c1F,-27,x,105,111
CCN1CCN(CC(O)COCc2ccccc2)CC1 (stereo not drawn),x,-1,102,102
CC(=O)N/C(=C\c1ccccc1)C(=O)Nc1ccc(O)cc1,-1,x,104,111
CCCNC(=O)c1ccccc1SC,12,5,104,104
CC(C)C(=O)Oc1ccc2c(c1)oc(=O)c1ccccc12,9,16,100,98
CCCCCc1c(O)nc(SCCN(CC)CC)n(C(=O)c2ccccc2)c1=O,-39,9,103,99
CNC(=O)CSc1nnc(-c2ccc3c(c2)OCO3)n1-c1ccccc1,-12,-9,106,109
O=C(C(c1ccccc1)c1ccccc1)N1CCN(c2ccccn2)CC1,-12,-7,102,99
NC(=O)C1CCN(CC(=O)NCc2ccc3c(c2)OCO3)CC1,16,5,100,101
CN(C)c1cnn(-c2ccccc2)c(=O)c1Cl,-2,9,100,103
O=C1CC(c2cccc(O)c2)Oc2ccccc21 (stereo not drawn),-5,x,109,115
COc1cc(C#N)ccc1OCc1nc(-c2ccc(Cl)cc2)no1,-9,x,105,110
COCCCN1C(=O)CSC1c1cn(-c2ccccc2)nc1-c1cccs1 (stereo not drawn),-14,0,102,107
CCN(CC)c1nc(Nc2ccc(Cl)cc2)nc(N(CC)CC)n1,-26,1,99,99
CCN(/C=N/c1ncc(-c2ccc(Br)cc2)s1)CC,-14,14,98,99
COC(=O)C(Cc1ccccc1)NC(=O)c1nn(C)c(=O)c2ccccc12 (stereo not drawn),-4,-8,103,106
Cc1sc2ncnc(N3CCC(C)CC3)c2c1C,-2,-8,100,101
O=C(OCc1ccccn1)c1ccc(COc2ccccc2Cl)o1,-33,0,102,99
Cc1nn(C)cc1S(=O)(=O)N1CCN(c2ccccn2)CC1,4,-171,100,105
CC(C)(C)OC(=O)CSc1nnc(Cc2cccc3ccccc23)n1N,12,-7,98,103
COc1ccccc1N1CCN(CCCNC(=O)c2nn(C)c3c2COc2ccccc2-3)CC1,-13,-12,103,101
O=C(CCN1CCOCC1)NN=C1C2CC3CC(C2)CC1C3,-24,9,101,107
O=S(=O)(NC1CCCCC1)c1ccc(S(=O)(=O)N2CCN3CCCC3C2)cc1 (stereo not drawn),-9,-1,101,99
Cc1ccc(-c2ccc(/C=C3/SC(=S)N(C)C3=O)o2)cc1Cl,-37,0,104,106
CCc1nnc(SC(CC)C(=O)NCc2ccc(C)cc2)c2cc3sccc3n12 (stereo not drawn),-78,-1,99,96
CN(C(=O)c1ccccc1C(=O)N(C)C1CCS(=O)(=O)C1)C1CCS(=O)(=O)C1 (stereo not drawn),-2,x,104,107
FC(F)(F)c1cccc2c1[nH]c1nc3ccccc3nc12,-8,-8,102,106
COc1ccc2[nH]c(C(=O)N3CCCN(Cc4ccc(F)cc4)CC3)cc2c1,-15,-35,102,99
# (further entries)
SMILES,Mtb MenB inh,MbtI inh,Polio RdRp inh,Polio RdRp inh intensity
CCN(C(C)=O)c1nc(COC(=O)c2ccc3c(c2)OCCO3)cs1,-11,-12,99,99
CN(C(=O)CSc1n[nH]c(N)n1)c1ccccc1,-24,-9,106,98
COc1ccc(/C=C2/N=C3SC(C)C(=O)N3C2=O)cc1 (stereo not drawn),-20,-10,101,100
COc1ccc(Cc2nc3c4cnn(-c5c(F)c(F)cc(F)c5F)c4ncn3n2)cc1OC,6,11,106,98
Cc1ccc(-c2n[nH]c3c2C(c2ccccc2)NC3=O)cc1 (stereo not drawn),-23,10,103,103
COc1ccc(Cc2nn3c(C)nnc3s2)cc1,-12,-6,103,102
CCCN1C(=O)C2(Nc3ccccc3-c3nc4ccccc4n32)c2ccccc21 (stereo not drawn),-14,-12,102,100
CCOC(=O)c1[nH]c(=O)[nH]c1CC1C(=O)CC(C)(C)CC1=O,-15,x,94,90
Cc1nnc(SCc2ccccc2F)n1C(C)C,8,12,101,103
CCc1ccc(C(=O)NCc2nnc(SC)n2C)cc1,22,-3,102,102
Cc1cccc(N2CCN(C(=O)CN3C(=O)CCSc4ccccc43)CC2C)c1 (stereo not drawn),-21,-12,100,99
Cc1cccc(C(=O)OCCN2C(=O)c3ccccc3C2=O)c1,-16,5,103,109
Cc1ccc(S(=O)(=O)N=S(c2ccccc2)c2ccccc2)cc1,-11,7,100,103
O=C(Nc1ccc(N2CCCCC2)cc1)C1COc2ccccc2O1 (stereo not drawn),-5,-1,100,104
O=C(COC(=O)c1ccccc1C(=O)c1ccccc1)NC1CCCCC1,x,-3,97,101
CCOC(=O)Cc1cc(=O)[nH]c(Nc2nc3ccccc3o2)n1,-101,-51,91,88
CCn1ncc(C2=NOC(C(=O)N3CCC(C(N)=O)CC3)C2)c1C (stereo not drawn),-9,0,103,100
CCC(=O)N=c1sc2ccccc2n1CC(=O)OC,-5,5,104,100
Cc1cc(C)nc(N(C#N)CCOc2ccc(Cl)cc2)n1,9,6,102,102
CCOc1ccc(N/C=C(\C#N)c2nc3ccccc3[nH]2)cc1,-12,-20,102,105
O=C(COC(=O)c1cc(=O)c2ccccc2o1)Nc1ccc(S(=O)(=O)N2CCCC2)cc1,-11,0,100,102
O=C1C=CC(=O)N1C1CC1,10,91*,102,104
CN(C)/C=C(\C#N)C(=O)Nc1ccccc1,-18,10,103,101
CCCCc1nnc(NC(=O)CN2C(=O)c3ccccc3C2=O)s1,-11,45,101,99
O=S(=O)(NC(=S)Nc1ccc(Cl)c(Cl)c1)c1ccccc1,-36,11,102,106
c1ccc(-n2nnnc2Sc2nnc3n2CCCCC3)cc1,-10,3,106,100
Clc1nc2ccccc2cc1C=NCc1ccco1,6,-2,102,107
CCC(CC)NCc1ccc(OC)c(C)c1OC,-28,-12,103,103
O=c1c2c(-c3cccs3)csc2nc(CN2CCOCC2)n1Cc1ncc(-c2ccccc2)o1,-8,2,104,107
COc1ccc(S(=O)(=O)N(C)CC(=O)NCc2ccccc2)cc1OC,-12,x,106,111

# Copied from the list.
# Entry for `O=C(COC(=O)c1cccc(O)c1)c1ccc(F)cc1` in MbtI inh: -2
# Entry for `Cc1ccc2[nH]c3c(c2c1)SC(C)(C)CC3=O` in Mtb MenB inh: 1

# New compounds follow
SMILES,Mtb MenB inh,MbtI inh,Polio RdRp inh,Polio RdRp inh intensity
O=S(=O)(CC(O)COc1ccc(Br)cc1)c1ccccc1 (stereo not drawn),-9,-9,100,103
CN1CCN(c2ccc(Cl)cc2NC(=S)Nc2cccnc2)CC1,-16,1,101,105
COc1nc2ccccc2nc1CCC(=O)Nc1ccccc1,5,-1,98,106
CC(/C=C/c1ccccc1)=N\NC(N)=S,-121,91*,103,102
Cc1ccc(CNCc2ccccc2)o1,10,x,105,111
CC1(C)Nc2ccccc2NC1=O,1,5,99,104
CCCn1c(=N)n(CC(O)c2ccccc2)c2ccccc21 (stereo not drawn),-6,-4,100,103
COc1cccc(N2CC(=O)N(NC(=O)NC3CCCCC3)CC2=O)c1,-18,1,99,100
Cc1cc2oc(=O)c3c(c2c(O)c1CN1CCCCC1)CCCC3,-12,x,107,110
Cc1cc(OCCON2C(=O)CCC2=O)c(C)cc1Cl,-3,-7,101,104
OCCn1nnnc1-c1ccccc1,-7,-6,101,102
CCN(CC)CCCNc1nnc(C)c(=O)[nH]1,4,-3,99,103
CN(C)CCNC(=O)c1cc2c(s1)-c1ccc(Cl)cc1SC2,1,17,101,104

# An excerpt of these results, with values under each structure.
# Under each structure – Mtb MenB inh, MbtI inh, Polio RdRp inh, Polio RdRp inh intensity
> Cc1ccc(S(=O)(=O)N=S(c2ccccc2)c2ccccc2)cc1
→ -11, 7, 100, 103
> O=C(Nc1ccc(N2CCCCC2)cc1)C1COc2ccccc2O1 (stereo not drawn)
→ -5, -1, 100, 104
> O=C(COC(=O)c1ccccc1C(=O)c1ccccc1)NC1CCCCC1
→ x, -3, 97, 101
> CCOC(=O)Cc1cc(=O)[nH]c(Nc2nc3ccccc3o2)n1
→ -101, -51, 91, 88
> CCn1ncc(C2=NOC(C(=O)N3CCC(C(N)=O)CC3)C2)c1C (stereo not drawn)
→ -9, 0, 103, 100
> CCC(=O)N=c1sc2ccccc2n1CC(=O)OC
→ -5, 5, 104, 100
> Cc1cc(C)nc(N(C#N)CCOc2ccc(Cl)cc2)n1
→ 9, 6, 102, 102
> CCOc1ccc(N/C=C(\C#N)c2nc3ccccc3[nH]2)cc1
→ -12, -20, 102, 105
> O=C(COC(=O)c1cc(=O)c2ccccc2o1)Nc1ccc(S(=O)(=O)N2CCCC2)cc1
→ -11, 0, 100, 102
> O=C1C=CC(=O)N1C1CC1
→ 10, 91*, 102, 104
> CN(C)/C=C(\C#N)C(=O)Nc1ccccc1
→ -18, 10, 103, 101
> CCCCc1nnc(NC(=O)CN2C(=O)c3ccccc3C2=O)s1
→ -11, 45, 101, 99
> O=S(=O)(NC(=S)Nc1ccc(Cl)c(Cl)c1)c1ccccc1
→ -36, 11, 102, 106
> c1ccc(-n2nnnc2Sc2nnc3n2CCCCC3)cc1
→ -10, 3, 106, 100
> Clc1nc2ccccc2cc1C=NCc1ccco1
→ 6, -2, 102, 107
> CCC(CC)NCc1ccc(OC)c(C)c1OC
→ -28, -12, 103, 103
> O=c1c2c(-c3cccs3)csc2nc(CN2CCOCC2)n1Cc1ncc(-c2ccccc2)o1
→ -8, 2, 104, 107
> COc1ccc(S(=O)(=O)N(C)CC(=O)NCc2ccccc2)cc1OC
→ -12, x, 106, 111
> O=S(=O)(CC(O)COc1ccc(Br)cc1)c1ccccc1 (stereo not drawn)
→ -9, -9, 100, 103
> CN1CCN(c2ccc(Cl)cc2NC(=S)Nc2cccnc2)CC1
→ -16, 1, 101, 105
> COc1nc2ccccc2nc1CCC(=O)Nc1ccccc1
→ 5, -1, 98, 106
> CC(/C=C/c1ccccc1)=N\NC(N)=S
→ -121, 91*, 103, 102
> Cc1ccc(CNCc2ccccc2)o1
→ 10, x, 105, 111
> CC1(C)Nc2ccccc2NC1=O
→ 1, 5, 99, 104
> CCCn1c(=N)n(CC(O)c2ccccc2)c2ccccc21 (stereo not drawn)
→ -6, -4, 100, 103
> COc1cccc(N2CC(=O)N(NC(=O)NC3CCCCC3)CC2=O)c1
→ -18, 1, 99, 100
> Cc1cc2oc(=O)c3c(c2c(O)c1CN1CCCCC1)CCCC3
→ -12, x, 107, 110
> Cc1cc(OCCON2C(=O)CCC2=O)c(C)cc1Cl
→ -3, -7, 101, 104

# Random draw from the library. Share with any hit: about 1.8%.
